# Sa growth 42C = blocks Staphylococcus aureus growth. S. aureus RN4220 growth, OD600, 20 h, 42 °C; active compounds read low. relative growth, % (test concentration not listed). hit rate 0.53% among 170,000. AID 720641;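 active means growth at 42 °C up to 50% and 20 or more points under that at 30 °C, or under 10% at both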;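 further: 300 nL library stock went into each well; scaled to the means of positive and negative controls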
# HCMV NEC inh = inhibitors of HCMV UL50-UL53 nuclear egress complex interaction; HTRF UL50-UL53 interaction, normalized percent inhibition; inhibition, % (concentration not given with the values); hit rate 0.15% among 190,000; AID 1918969;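 active means both replicates at 50% or more, plus weaker picks with an unusually low signal ratio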;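 further: stock transfer was 100 nL into about 20 µL; 0% = negative control wells and 100% = wells with untagged competitor protein; inactives centre near -12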
# GIV Gai3 FP = blocks GIV peptide binding to rat Galpha-i3. P08753. Galpha-i3/FITC-GIV peptide fluorescence polarization, 90 min; active compounds read low; scaled: aluminum fluoride 0%, vehicle 100%. percent of control (FP), % (concentration not given with the values). hit rate 0.42% among 210,000. AID 1224905;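 active means replicate mean at 85% of control or lower, very high polarization wells dropped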;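 further: wells of about 15 µL received 100 nL stock; the first replicate is given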
# Target sequence (P08753 whole entry, looked up): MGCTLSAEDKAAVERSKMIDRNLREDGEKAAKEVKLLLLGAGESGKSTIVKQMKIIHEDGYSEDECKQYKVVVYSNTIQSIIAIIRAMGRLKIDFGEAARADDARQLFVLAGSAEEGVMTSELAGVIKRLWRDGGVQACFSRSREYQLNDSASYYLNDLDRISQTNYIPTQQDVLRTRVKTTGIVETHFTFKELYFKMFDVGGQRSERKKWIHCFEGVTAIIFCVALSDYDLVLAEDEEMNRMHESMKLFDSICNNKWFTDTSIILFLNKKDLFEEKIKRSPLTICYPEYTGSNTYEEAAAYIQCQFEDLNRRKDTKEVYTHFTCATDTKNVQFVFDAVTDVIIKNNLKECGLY
# Sa growth 42C second temp = further read-out of Sa growth 42C, marked with its call; relative growth, %; measured here: growth at 30 °C;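 optical density after 20 h as mean of two plates; 100% = untreated growth and lower means inhibition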
# * = called active by the depositor; . = no result given; & = joins results of further samples. Hits appear at their usual frequency; overall some 0.83% were active at least once.
entry	Molecule	Sa growth 42C	Sa growth 42C second temp	HCMV NEC inh	GIV Gai3 FP
1	O=C(CN1CCC(C(=O)Nc2ccccc2)CC1)NCc1ccc(CN2CCOCC2)cc1	93	88	-10	.
2	C/C(=N/O)C1C(=O)c2ccccc2C1=O	70	86	-46	.
3	Cc1noc(C)c1COC(=O)Cc1ccc(Cl)cc1	88	88	-13	.
4	CC(=O)N1CCC(C(=O)Nc2ccc(-c3cnco3)cc2)CC1	102	74	1	104
5	CCCN(c1nc2nc(C)cc(C)n2n1)S(=O)(=O)c1ccccc1	.	.	-30	107
6	O=c1[nH]ncc(NCCc2ccccc2)c1Cl	75	86	3	97
7	CN1C(=O)c2[nH]nc(-c3ccc(F)cc3)c2C1c1cccc(O)c1 (stereo not given)	76	77	2	104
8	O=C(NCc1cccs1)c1csc(Cc2c(Cl)cccc2Cl)n1	110	87	-15	110
9	COc1ccc(C(=O)OCC(=O)NC23CC4CC(CC(C4)C2)C3)cc1S(=O)(=O)N1CCOCC1	101	102	-3	.
10	CCOc1ccc(Cc2nc(C)c(CC(=O)N3CCOCC3)c(=O)[nH]2)cc1	119	84	.	92
11	O=C(CCCc1nc(-c2ccccc2Cl)no1)Nc1nn[nH]n1	.	.	-17	103
12	CCc1ccccc1NC(=O)CN(Cc1ccccc1)S(=O)(=O)c1ccc(Br)cc1	106	87	-15	104
13	COc1ccc(C(=O)c2c(C)n(C)c(=O)n(C)c2=O)cc1	116	95	10	101
14	Cn1c(C(=O)O)ccc1S(=O)(=O)N1CCN(c2ccc(C(F)(F)F)cn2)CC1	93	95	-5	108
15	COc1ccc(C(CC(=O)Nc2ccc(C)c(C)c2)N2Cc3ccccc3C2=O)cc1OC (stereo not given)	116	64	.	100
16	COC(=O)c1c(NC(=O)Cc2coc3cc(C)ccc23)sc2c1CCCC2	118	93	-10	106
17	O=C(Nc1cccc(C(F)(F)F)c1)n1nc(C(F)(F)F)c2cnccc21	98	42	-15	98
18	C=CS(=O)(=O)c1ccc(OC)c(N)c1	82	107	4	.
19	Cc1nccc2[nH]c(=O)c(C(=O)NCCN3CCN(c4cccc(Cl)c4)CC3)cc12	101	71	-3	107&110
20	N#Cc1ccccc1Sc1ccccc1C(=O)OCC(=O)NC1CC1	86	89	2	.
21	CCOC(=O)c1cnc2c(-c3ccccc3)cnn2c1C	112	82	.	104
22	COc1ccc(N2CCN(C(=O)c3ccccc3OC)CC2)cc1	104	99	-7	106
23	Cc1nnc2c(SCc3cccc(F)c3)nc3ccccc3n12	.	.	-37	98
24	CC1CCN(CCCNC(=O)CCn2nc(-c3ccccc3)ccc2=O)CC1	101	89	-33	108
25	COCCn1c(SCC(=O)N2c3ccccc3CC2C)nc2ccccc2c1=O (stereo not given)	105	93	-2	.
26	COc1ccc(-c2nnc(NC(=O)c3ccc(S(=O)(=O)N(C)C)cc3)s2)c(OC)c1	.	.	-18	99
27	O=C(NCC(c1cccnc1)N1CCc2ccccc2C1)C(=O)Nc1ccc2c(c1)OCO2 (stereo not given)	.	.	-13	105
28	CN1CCC(OC(=O)c2ccc(Cl)cc2Cl)CC1	98	72	-2	102
29	Cc1noc2ncn(CC(=O)NCCC(C)N3CCCC3)c(=O)c12 (stereo not given)	.	.	1	101
30	CC(C)c1ccc(C2C3=C(CC(C)(C)CC3=O)OC3=C2C(=O)CC(C)(C)C3)cc1	.	.	-11	105
31	CCCCCn1c(=O)c2sccc2n2c(CCC(=O)N3CCC(N4CCCCC4)CC3)nnc12	.	.	-11	95
32	Cc1ccc(Oc2coc3cc(OCC(=O)N4CCCCC4)ccc3c2=O)cc1	109	79	.	105
33	Cc1cc2c(cc3n2CC(C)(C(=O)NC2CCCCC2)N(CCC(C)C)C3=O)o1 (stereo not given)	.	.	-4	103
34	Cc1ccc(NC(=O)c2cc(-c3ccc(O)cc3)on2)cc1	118	103	6	98
35	Nc1nonc1C(=O)NCCNC(=O)Nc1cccc(Cl)c1	.	.	-8	99
36	N/C(COc1cc(Cl)cc(Cl)c1)=N\O	101	93	-12	103
37	OC(CNC1Cc2ccccc2C1)COc1ccc(F)cc1 (stereo not given)	93	91	-15	106
38	COc1cc(OC)cc(C(=O)Nc2cccc(-c3nc(-c4ccccc4)no3)c2)c1	.	.	-16	107
39	O=C(CCn1c(=O)oc2ccccc21)N(Cc1ccccc1)c1ccccc1	89	49	-19	99
40	Cn1nc(C(=O)Nc2nc3ccccc3s2)c2c1-c1ccccc1OC2	.	.	6	103
41	O=C(O)C1C2C=CC3(CN(c4ccccc4)C(=O)C13)O2 (stereo not given)	89	88	-6	102
42	O=C(Cc1c(Cl)cccc1Cl)OCC(=O)c1cc2ccccc2o1	89	85	-43	.
43	Cc1cccc(CCNC(=O)c2cc3c(s2)-c2c(C)cccc2OC3)c1	109	89	-26	100
44	COc1ccc(C(=O)Nc2ccc(CN3CCCCC3)cc2)cc1	94	104	-10	107
45	Cc1cc(C)cc(OCC(=O)NCC2(N3CCOCC3)CCCCC2)c1	108	85	18	105
46	O=C(NC1CCCC1)c1ccc2cn[nH]c2c1	.	.	-25	105
47	O=C(Cn1ncc2c(=O)oc3ccccc3c21)NCc1ccccc1Cl	114	94	-25	105
48	Cc1nc(Nc2ccc(NC(=O)Nc3ccccc3)cc2)cc(N(C)C)n1	.	.	-30	94
49	COC(=O)c1ccccc1NC(=O)c1ccc2c(c1)CCCN2S(C)(=O)=O	.	.	-17	102
50	O=C(O)c1ccccc1C(=O)NC1Cc2ccccc2C1	102	86	-19	96

# Ordered by heavy-atom count (largest number first): some entries from above.
entry	Molecule	Sa growth 42C	Sa growth 42C second temp	HCMV NEC inh	GIV Gai3 FP
15	COc1ccc(C(CC(=O)Nc2ccc(C)c(C)c2)N2Cc3ccccc3C2=O)cc1OC (stereo not given)	116	64	.	100
10	CCOc1ccc(Cc2nc(C)c(CC(=O)N3CCOCC3)c(=O)[nH]2)cc1	119	84	.	92
47	O=C(Cn1ncc2c(=O)oc3ccccc3c21)NCc1ccccc1Cl	114	94	-25	105
7	CN1C(=O)c2[nH]nc(-c3ccc(F)cc3)c2C1c1cccc(O)c1 (stereo not given)	76	77	2	104
8	O=C(NCc1cccs1)c1csc(Cc2c(Cl)cccc2Cl)n1	110	87	-15	110
36	N/C(COc1cc(Cl)cc(Cl)c1)=N\O	101	93	-12	103

# Some of the entries so far, with two lines to a compound.
# The line under a structure holds: Sa growth 42C | Sa growth 42C second temp | HCMV NEC inh | GIV Gai3 FP
45	Cc1cc(C)cc(OCC(=O)NCC2(N3CCOCC3)CCCCC2)c1
  108 | 85 | 18 | 105
39	O=C(CCn1c(=O)oc2ccccc21)N(Cc1ccccc1)c1ccccc1
  89 | 49 | -19 | 99
36	N/C(COc1cc(Cl)cc(Cl)c1)=N\O
  101 | 93 | -12 | 103

# Going on with the list.
entry	Molecule	Sa growth 42C	Sa growth 42C second temp	HCMV NEC inh	GIV Gai3 FP
51	Cc1csc(NC(=O)Cc2csc(-n3nc(C)cc3C)n2)n1	.	.	-15	111
52	CSc1nc(C)cc(-n2ccc(=O)[nH]c2=O)n1	99	95	5&-8	107&102
53	Cc1cc2nc(COc3cc(NC(=O)C(C)(C)C)ccc3C)cc(=O)n2o1	.	.	6	104
54	COC(=O)c1noc(C)c1-c1ccnn1C(=O)c1ccc(Cl)cc1	92	86	-25	101
55	COc1ccc(Nc2cc(C(=O)NCCCN3CCCC3)c3ccccc3n2)cc1	98	98	.	109
56	COC(=O)c1sc2cccc(F)c2c1S(=O)(=O)N1CCN(c2ccc(C)cc2C)CC1	72	84	.	101
57	O=C(c1ccccc1)N1CCN(S(=O)(=O)c2ccccc2)CC1	104	100	-21	100
58	N#Cc1ccccc1NC(=O)CN1CCN(S(=O)(=O)/C=C/c2ccccc2)CC1	103	96	-20	.
59	Cc1nn(-c2ccccc2)c2sc(-c3noc(CNC(=O)Cc4ccc(Cl)cc4)n3)cc12	.	.	-19	108
60	COc1cc(OC)c(S(=O)(=O)N(C)c2ccccc2)cc1S(=O)(=O)N(C)c1ccccc1	112	104	5	108
61	CCOc1ccc(C(=O)NC(C(=O)NCC2CCCO2)C(C)C)cc1 (stereo not given)	112	104	-6	.
62	COc1ccc(NC(=O)c2c(-c3cccnc3)noc2C)cc1	.	.	-21	100
63	Cc1nn(CC(=O)Nc2ccccc2F)c(=O)c2cccn12	91	81	-28	106
64	CCOc1ccc(CCNC(=O)CCCc2nnc3n(CC(C)C)c(=O)c4sccc4n23)cc1	107	86	.	102
65	COc1ccc(/C=C2\SC(=O)N(CCNS(=O)(=O)c3ccccc3OC)C2=O)cc1	83	84	-93	.
66	N#CC(=NCc1cccnc1)C1=C(O)c2ccccc2C1=O	101	100	-9	103
67	CCCC(=O)Nc1cc(C(=O)NCc2cccs2)ccc1S(=O)(=O)c1ccc(Cl)cc1	111	84	1	102
68	COC(=O)c1cccc(-n2c(CCC(=O)O)ccc2-c2cccs2)c1	80	86	.	103
69	c1ccc2c(c1)ncn2CCN1CCOCC1	110	116	-11	105
70	O=C(NCC1COCCO1)c1cc2n(n1)CCCN(Cc1ccccc1)C2=O (stereo not given)	.	.	-16	101
71	O=C1CNC(=S)N1CCc1ccc(O)c(O)c1	71	50	-34	99
72	COc1cccc(C(c2sc3nc(-c4ccco4)nn3c2O)N2CCCC2)c1 (stereo not given)	132	84	.	99
73	COc1ccc(-n2nc(C(=O)N3CCN(c4ccccc4)CC3)c(=O)n(C)c2=O)cc1	.	.	-23	101
74	Oc1oc(-c2ccc(Br)cc2)nc1C=Nc1cccc(C(F)(F)F)c1	.	.	-9	107
75	CC(C)(C)C(=O)NCC(=O)O	99	94	-1	.
76	Oc1ccc(-c2csc(-c3ccccc3)n2)cc1O	70	48	10	103
77	COc1ccc(Cl)cc1-n1c(C)nc2cc(C(=O)NCC(OC)OC)ccc21	114	91	.	104
78	CCN1C(=O)c2ccccc2S(=O)(=O)c2ccc(C(=O)NCCN3CCCCCC3)cc21	108	91	.	99
79	COc1ccc2nc(N(Cc3cccnc3)C(=O)c3ccc4c(c3)OCCO4)sc2c1	75	87	.	103&106
80	Oc1ccc(CNCC2NCCc3ccccc32)cc1Cl (stereo not given)	85	99	2	.
81	Cc1cccc(C)c1N1CCN(C(=O)N2CCCCC2)CC1	96	82	3	107
82	N#Cc1ccc(OCCOCCn2cncn2)cc1	104	94	-13	99
83	COc1ccc(/C=N/c2nc3ccccc3n2Cc2ccc(Cl)cc2)cc1OC	79	79	.	104
84	CC(=O)Oc1ccc(Nc2nc3nonc3nc2Nc2ccccc2)cc1	76	44	-12	102
85	CC(Oc1ccccc1)C(=O)O (stereo not given)	104	103	.	105
86	CC(C)(C)C(=O)/C=C/Nc1ccc(F)cc1	103	103	-9	96
87	CCCCn1nc(NC(=O)c2cccc(Cl)c2)c2cc3ccc(C)cc3nc21	107	88	-6	104
88	COC(=O)C1=C(CN(C)CCc2ccc(OC)c(OC)c2)NC(=O)NC1c1cccc(OC)c1 (stereo not given)	98	77	-1	103
89	c1ccc(Nc2cc(-c3ccccc3)[nH]n2)cc1	85	21	-35	.
90	Cc1c(C#N)c(N)n(Cc2cc(C(F)(F)F)cc(C(F)(F)F)c2)c1C	-0.1*	-0.1*	18	138
91	Nn1c2ccccc2n2cc(-c3ccccc3)nc12	122	62	-30	.
92	Cc1cc(-c2cn3nc(-c4ccccc4)c(-c4ccccc4)nc3n2)c(C)n1Cc1ccco1	90	95	10	.
93	O=C1NC2(CCCc3sccc32)C(=O)N1CCN1C(=O)c2ccccc2C1=O (stereo not given)	91	95	-21	.
94	COc1ccc(CC(=O)OCC(=O)NC2CC2)cc1	108	94	5	.
95	COC(=O)c1cc2sc(Cl)cc2n1Cc1nc(-c2ccc(OC)cc2)oc1C	115	79	-8	106
96	CCCCN(C)C(=O)C1CCCN(c2nnc(C)c3c(C)n(-c4ccccc4)nc23)C1 (stereo not given)	101	87	-29	103
97	Cc1cc(C)nc(NC(N)=NC(C)c2ccccc2)n1 (stereo not given)	82	22	-30	106
98	CC(C)(C)OC(=O)N1CCC(CNS(=O)(=O)c2cccc(C(F)(F)F)c2)CC1	105	86	-21	102
99	COC(=O)c1sccc1Oc1ccc(Cl)cc1N1C(=O)CCC1=O	96	83	-12	107
100	Cn1c(NC(=O)c2ccccc2NC(=O)c2ccccc2)nc2ccccc21	91	73	.	113

# (list continues)
entry	Molecule	Sa growth 42C	Sa growth 42C second temp	HCMV NEC inh	GIV Gai3 FP
101	N/C(=N/O)c1ccccc1N	94	84	.	104
102	COc1cc(C2Nc3ccc(C(=O)c4ccccc4)cc3NC3=C2C(=O)CCC3)cc(OC)c1O (stereo not given)	.	.	-76	107
103	Cc1cc(Nc2ccccc2)nc(Nc2ccccc2)n1	64	44	7	.
104	CCOC(=O)C(C)NC(=O)c1cc2c(=O)[nH]c3ccc(C)cc3c2s1 (stereo not given)	103	76	-42	111
105	COc1cccc(NC(=O)CCNS(=O)(=O)c2ccc(Br)s2)c1	110	86	-17	110
106	CCCN1C(=O)c2oc3cc(C)cc(C)c3c(=O)c2C1c1ccc(F)cc1 (stereo not given)	90	91	-13	99
107	COCCN(C(=O)c1ccco1)c1nnc(-c2ccc(F)cc2)s1	113	67	2	105
108	Cc1nc2ccc(S(=O)(=O)NC(CC(C)C)C(=O)N3CCN(c4ccc(F)cc4)CC3)cc2s1 (stereo not given)	79	86	-18	103
109	O=C(Cc1ccc(Cl)cc1)Nc1ccccc1C(=O)N1CCOCC1	95	105	9	100
